Screens as filed in PubChem.
Choline anaer gr = choline-fed anaerobic bacterial growth inhibition. Gram-negative bacterium anaerobic choline minimal medium, absorbance growth; hits give low values; many inactives read as strong as hits in the columns shown. calls only. 0.2% of 55,000 active. AID 1963822;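 active means growth z-score on choline under -2 at 7 or 20 h with little or no fall on glycerol, limits in tiers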;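 further: stock transfer was 300 nL into about 50 µL; the organism is E. coli; final concentration not given here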
Choline anaer gr early = second read-out of Choline anaer gr, no call of its own (marks repeat the call); z-score; measured here: choline growth z-score, timepoint 1;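 score of optical density at 7 h as mean of two plates; lower means less growth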
Numbers without * were called inactive; i = inactive. A portion of the library. The share of hits here may be higher or lower than overall.

SMILES | Choline anaer gr | Choline anaer gr early
Cc1nc2ccccc2c2c1C(=O)N(c1ccccc1C(=O)OCc1ccc(Cl)cc1)C2=O | i | -2.17
O=C(Cn1cnc(S(=O)(=O)N2CCCCC2)c1)NCCC1=CCCCC1 | i | -0.53
Cc1ccc2[nH]cc(CCN3CC(C(=O)Nc4cccc(F)c4)CC3=O)c2c1 (stereo unspecified) | i | -0.53
CCC(Sc1nc2ncccc2[nH]1)C(=O)Nc1cc(OC)ccc1OC (stereo unspecified) | i | 0.23
Cc1nn(-c2ccc(N3CCCC3)nn2)c(C)c1CCC(=O)N1CCN(c2ccccn2)CC1 | i | 0
Brc1cccc(-c2nnc3sc(-c4ccncc4)nn23)c1 | i | 0.9
CCn1cccc1-c1nc(C)c(C(=O)NCCc2ccc(OC)c(OC)c2)s1 | i | -0.31
O=C(c1ccc2ccnc(N3CCN(c4ccccc4F)CC3)c2c1)N1CCN(c2ccccc2)CC1 | i | 0.46
CCn1cnc(S(=O)(=O)N2CCC(C(=O)N3CCC(C)CC3)CC2)c1 | i | -0.19
O=C(c1ccccc1F)N1CCN(c2ccc(N3CCOCC3)nn2)CC1 | i | 0.15
O=C(Nc1noc2ccccc12)c1cc(Br)ccc1Cl | i | 0.08
CC1CC(=O)Nc2cc(S(=O)(=O)CCC(=O)NCC3CCCO3)ccc2S1 (stereo unspecified) | i | 0.04
CN(CCNC(=O)c1nnc(-c2ccc(S(=O)(=O)N(C)C)cc2)o1)C1CCCCC1 | i | -2.93
CCCCCNC(=O)c1ccc(Sc2ccc(NS(=O)(=O)c3ccccc3)cc2)nc1 | i | -0.24
Cn1cc(C(=O)Nc2ccc3c(c2)OCCO3)c2[nH]c(=O)n(-c3ccccc3)c(=O)c21 | i | 3.14
Cc1ccsc1CC1C(=O)Nc2ccccc21 (stereo unspecified) | i | -0.24
O=C(Nc1ccc2c(c1)OCO2)c1nnc(C(=O)N2CCCC(C(=O)Nc3cc(F)ccc3F)C2)s1 (stereo unspecified) | i | 0.02
Cc1c2c(nn1-c1ccc(SCc3ccc(F)cc3)nn1)CCC2 | i | -0.29
CCc1ccc(NC(=O)c2nnn(-c3ccc4noc(-c5ccccc5)c4c3)c2C)cc1 | i | 1.13
Cc1ccc(NC(=O)CSc2ncnc3nc(N4CCCCC4)sc23)c(F)c1 | i | 0.51
O=C(Nc1c(-c2ccc(F)cc2)nc2ccccn12)c1ccc(F)cc1 | i | 1.32
COC(=O)CC1=CC(SCC(=O)Nc2cc(C)[nH]n2)=Nc2ccccc2N1 | i | -0.03
CN(C)S(=O)(=O)c1ccc2c(c1)cc(C(=O)NCCC1=CCCCC1)n2Cc1ccncc1 | i | 0.2
O=C(COc1ccc(-c2nc(-c3ccccc3)no2)cc1)N1CCOCC1 | i | 0.29
CCc1cc2c(N(C)c3ccc(OC)cc3OC)ncnc2s1 | i | -1.29
COc1ccc(Br)cc1C1Nc2ccc(C)cc2[C@H]2OCC[C@@H]12 (stereo partly specified) | i | 0.08
CCn1c(=O)c(N2CCC(C(=O)NCCCN3CCOCC3)CC2)nc2ccccc21 | i | -0.59
CC1CCN(S(=O)(=O)c2ccc3c(ccn3CCC(=O)NCCCN3CCOCC3)c2)CC1 | i | 0.2
CCc1ccc(NC(=O)NCCc2c(C)nn(C)c2C)cc1 | i | -0.35
CCC(C)NC(=O)Cn1c(=O)n(CC2CCC(C(=O)N3CCCCC3)CC2)c(=O)c2sccc21 (stereo unspecified) | i | -0.75
Cc1cc(Nc2ccc(C(=O)Nc3ccc4c(c3)OCO4)cc2)n2ncnc2n1 | i | -0.15
O=S(=O)(c1cc(-c2nnc(C3CCC3)o2)co1)N1CCN(c2cccc(Cl)c2)CC1 | i | 1.39
COc1cc(Cl)c(C)cc1NC(=O)CS(=O)(=O)c1ccc2c(c1)n(C)c(=O)n2C | i | 0.48
CCc1nc(CC)n2c(=O)n(Cc3nc(C4CC4)no3)nc2c1C | i | 0.22
COc1ccc(-c2nc(SCc3cc(=O)c4cc(C(N)=O)ccc4[nH]3)n[nH]2)cc1 | i | -0.05
CC1(C)CC(=O)c2cnc3c(C(=O)N4CCC(N5CCCCC5)CC4)cnn3c2C1 | i | -2.1
COc1ccc(OC)c(NS(=O)(=O)c2cc(-c3ccc(=O)[nH]n3)ccc2Cl)c1 | i | -0.15
CCOc1ccc(-n2c(SCC(=O)Nc3ncn[nH]3)nc3ccsc3c2=O)cc1 | i | 0.39
CC(C)Cn1c(=O)c2sccc2n2c(CCC(=O)NCCCOC(C)C)nnc12 | i | -0.02
CCCn1c(=O)c2c(nc3n2CCS3)n(C)c1=O | i | 0.35
O=C(CCCn1ccc2cc(S(=O)(=O)N3CCCC3)ccc21)NCc1ccc(Cl)cc1 | i | 1.75
O=C(CCc1ccccc1)N1CCN(C(=O)c2cc3cc(Br)ccc3[nH]2)CC1 | i | 0.25
CN(C)c1ccc(-c2nn3c(CSc4ccccc4)nnc3s2)cc1 | i | -0.17
COc1ccc2c(c1)CCc1c(C(=O)Nc3cc(C)ccc3O)noc1-2 | i | -1.68
O=C(Nc1ccc(CCc2nc3ccccc3[nH]2)cc1)c1cnccn1 | i | 1.39
O=C(NC1CCCCC1)C1CCN(Cc2noc(-c3ccc(F)cc3)n2)CC1 | i | -0.34
COc1ccccc1NC(=O)Cn1ncc2c(=O)oc3ccccc3c21 | i | 0.5
O=C(Nc1ccc2c(c1)OCO2)c1nnc(C2CCN(C(=O)NC3CCCC3)CC2)s1 | i | 0.88
Cc1ccc(C(=O)NCC(=O)N2CCN(S(=O)(=O)c3cc4c(cc3C)NC(=O)CO4)CC2)cc1 | i | 0.22
COc1ccc(C(CNC(=O)c2ccc(Br)cc2)c2c[nH]c3ccccc23)cc1 (stereo unspecified) | i | 0.49
CCC(=O)Nc1cnc(N2CCN(c3ccccc3)CC2)c(C(=O)O)c1 | i | -0.51
CC1CCN(C(=O)c2ccc(Cn3c(=O)c4cccn4c4cccnc43)cc2)CC1 | i | 0.65
O=C(O)CCC/C=C\C[C@@H]1[C@@H](/C=C/[C@@H](O)CCc2cccc(C(F)(F)F)c2)[C@H](O)C[C@@H]1O | i | 0.2
O=S(=O)(Nc1ccc(N2CCCS2(=O)=O)cc1)c1ccc(Br)cc1 | i | 0.15
NC(Cn1ccc(=O)n(Cc2ccccc2C(=O)O)c1=O)C(=O)O (stereo unspecified) | i | 0.45
Cc1ccc(C2C=C(C(=O)O)Nc3c(C(=O)Nc4ccccc4)cnn32)cc1 (stereo unspecified) | i | -0.14
COc1cc2c(=O)n(Cc3ccc(C(=O)NC4CC4)cc3)c(=O)n(Cc3cccc(F)c3)c2cc1OC | i | 0.52
Cc1onc(-c2ccc(Br)cc2)c1C(=O)N1CCC(C)CC1 | i | 0.13
CC1(C(=O)NC2CCCCC2)Cn2c(cc3ccccc32)C(=O)N1c1ccc2c(c1)OCCO2 (stereo unspecified) | i | 1.09
O=C(c1csc(S(=O)(=O)Nc2ccc3c(c2)OCO3)c1)N1CCCC1 | i | -0.09

Grouped by structure: those above with a COOH group (four)
SMILES | Choline anaer gr | Choline anaer gr early
CCC(=O)Nc1cnc(N2CCN(c3ccccc3)CC2)c(C(=O)O)c1 | i | -0.51
O=C(O)CCC/C=C\C[C@@H]1[C@@H](/C=C/[C@@H](O)CCc2cccc(C(F)(F)F)c2)[C@H](O)C[C@@H]1O | i | 0.2
NC(Cn1ccc(=O)n(Cc2ccccc2C(=O)O)c1=O)C(=O)O (stereo unspecified) | i | 0.45
Cc1ccc(C2C=C(C(=O)O)Nc3c(C(=O)Nc4ccccc4)cnn32)cc1 (stereo unspecified) | i | -0.14

Additional records follow:
SMILES | Choline anaer gr | Choline anaer gr early
Cc1cc(N2CCN(c3ccccn3)CC2)n2ncc(-c3ccc(F)cc3)c2n1 | i | 0.93
COc1ccc(N2CCN(S(=O)(=O)c3cc(-c4cc(C(F)(F)F)[nH]n4)sc3C)CC2)cc1 | i | 1.26
C=CCNC(=O)C1(c2ccc(NS(=O)(=O)c3ccc(Br)cc3)cc2)CC1 | i | -0.79
COc1ccc(NC(=O)c2ccc3ccnc(N4CCN(c5ccc(OC)cc5)CC4)c3c2)cc1 | i | -0.95
CC1CCN(C(=O)c2noc3c2CSc2ccccc2-3)CC1 | i | -0.2
O=C(NCc1ccc(F)c(Cl)c1)c1sc2ncccc2c1-n1cccc1 | i | -0.37
Cc1ccc(NC(=O)C2=NS(=O)(=O)c3ccc(C)cc3N2)cc1 | i | -0.01
CCN(CC)S(=O)(=O)c1ccc2nc(NC(=O)C3CCCC3)sc2c1 | i | 0.56
Cc1cc(C)c2c(n1)SCCN2C(=O)Nc1ccc(Cl)cc1 | i | 0.21
Cc1ccc(N(Cc2nc3nc(C)cc(C)n3n2)C(=O)c2ccccc2C)cc1 | i | -0.01
Cc1noc(C2CN(S(=O)(=O)C(C)C)CC23CCOCC3)n1 (stereo unspecified) | i | 1.06
COc1cccc(NC(=O)C2CCN(S(=O)(=O)c3ccc4c(c3)CCCC(=O)N4)CC2)c1 | i | 0.76
Cc1ccc(CSc2nnc3c(S(=O)(=O)N4CCCC4)cccn23)cc1 | i | 0.58
CC1Cc2ccccc2N1C(=O)c1ccc(=O)n(CCC(=O)N2CCc3ccccc32)n1 (stereo unspecified) | i | -0.88
Cc1cccc(NC(=O)c2cnc3ccc(C)cn3c2=O)c1 | i | 0.66
CC(C)n1c(=O)[nH]c2nc(N3CCCCC3)sc2c1=O | i | -0.62
Cc1cc(C)cc(NS(=O)(=O)c2c(C)nc3sc4cc(C)ccc4n3c2=O)c1 | i | -1.25
CCOC(=O)c1cc(S(=O)(=O)N2CCC(Cc3ccccc3)CC2)cn1C | i | 1.06
CC(C)n1nnc2cc(C(=O)Nc3ccc(S(N)(=O)=O)cc3)ccc21 | i | 0.32
Cc1cc(NC(=O)CC2CCCC2)n(-c2ncnc3c2cnn3-c2cccc(Cl)c2)n1 | i | 0.51
Cn1c(=O)n(C)c2cc(Oc3ccccc3)c(NC(=O)NC3CCCCC3)cc21 | i | -0.31
CN(Cc1ccccc1)c1ncc(C(=O)O)cc1NS(=O)(=O)c1ccc(Br)cc1 | i | -0.54
O=C(CCc1nc(-c2ccccn2)no1)Nc1ccccc1 | i | -1.32
CCc1nc(-c2csc(S(=O)(=O)Nc3cccc4c3CCCC4)c2)no1 | i | 2.64
CCOC(=O)c1ccc2nc(-c3ccc(F)cc3)cc(OCC(=O)Nc3ccc(OC)cc3)c2c1 | i | 0.79
COc1ccc(OC)c(-n2c(-c3ccc(Cl)cc3)cn3c4c(=O)n(C)c(=O)n(C)c4nc23)c1 | i | 0.33
Cc1oc2ccc(O)c(CN3CCCC3)c2c1C(=O)NC1CCCCC1 | i | 0.09
Cc1cc(C)c(S(=O)(=O)Nc2cc(C(=O)O)cnc2N(C)CCCc2c(C)nn(C)c2C)cc1C | i | 0.1
Fc1ccc(CSc2nnc3n2CCN3c2ccccc2)cc1 | i | 1.38
CN(C)S(=O)(=O)c1ccc(-c2noc(C(=O)NC3CCCC3)n2)cc1 | i | 0.27
CN(C)C(=O)c1ccc(CN2CCc3c(c(C(=O)N4CCCC4)nn3C)C2)cc1 | i | -0.74
Cc1cc(C)c2c(-n3cccc3)nn(CC(=O)Nc3ccccc3Cl)c2n1 | i | -0.11
COc1cccc(-c2[nH]ncc2CN2CCCC(c3nncn3C)C2)c1 (stereo unspecified) | i | 0.2
CC(C)CN1C(=O)C2(CCOCC2)Nc2ccccc21 | i | -0.06
COc1ccc(-c2nc3ccccc3c3nnc(SCc4cn5ccccc5n4)n23)cc1 | i | 0.41
CN[C@H](CC(C)C)C(=O)N[C@H]1C(=O)N[C@@H](CC(N)=O)C(=O)N[C@H]2C(=O)N[C@H]3C(=O)N[C@H](C(=O)N[C@H](C(=O)O)c4cc(O)cc(O)c4-c4cc3ccc4O)[C@H](O)c3ccc(c(Cl)c3)Oc3cc2cc(c3O[C@@H]2OC(CO)[C@@H](O)[C@H](O)[C@H]2O[C@H]2C[C@](C)(N)[C@H](O)[C@H](C)O2)Oc2ccc(cc2Cl)[C@H]1O (stereo partly specified) | i | -1.39
CC(C)n1c(=O)c(=O)[nH]c2cc(-c3noc(-c4ccc(Br)cc4)n3)ccc21 | i | 0.67
CN(C)C(=O)c1cc2cccnc2n(Cc2ccc(F)cc2)c1=O | i | -1.34
Cc1cc(N2CCN(c3ccc(F)cc3)CC2)n2nc(-c3cccnc3)nc2n1 | i | 0.2
O=c1c(S(=O)(=O)N2CCCC2)cccn1Cc1cc(F)cc(F)c1 | i | 1.04

Compound profiles (already shown). Order of values: Choline anaer gr	Choline anaer gr early
Record of CC1(C)CC(=O)c2cnc3c(C(=O)N4CCC(N5CCCCC5)CC4)cnn3c2C1 : i	-2.1
Record of CCC(=O)Nc1cnc(N2CCN(c3ccccc3)CC2)c(C(=O)O)c1 : i	-0.51
Record of Cc1onc(-c2ccc(Br)cc2)c1C(=O)N1CCC(C)CC1 : i	0.13
Record of COc1ccc(N2CCN(S(=O)(=O)c3cc(-c4cc(C(F)(F)F)[nH]n4)sc3C)CC2)cc1 : i	1.26
Record of CC1(C(=O)NC2CCCCC2)Cn2c(cc3ccccc32)C(=O)N1c1ccc2c(c1)OCCO2 (stereo unspecified) : i	1.09

(further entries)
SMILES | Choline anaer gr | Choline anaer gr early
O=C(Nc1ccc(Cl)cc1)N1CCN(C2=Nc3ccccc3Oc3ccccc32)CC1 | i | -1.91
CCOCCCNC(=O)Cc1csc2nc(-c3ccc(Cl)cc3)cn12 | i | -0.4
Cc1cccc(C)c1OCc1nnc2c3cnn(Cc4ccccc4)c3ncn12 | i | 0.9
O=C(NCCc1cnc[nH]1)c1ccccc1NC(=O)c1nsc2ccccc12 | i | 0.06
COc1ccc(NC(=O)COC(=O)CSc2nc3ccccc3n2Cc2ccccc2)cc1 | i | 0.92
CCCc1cc(C2CCCN2Cc2ccc(O)c(OC)c2)no1 (stereo unspecified) | i | -0.79
CCOc1ccc(CN2CCCC2c2cc(C)on2)cc1OCC (stereo unspecified) | i | 0.45
